BJeLR viability: BJeLR cell viability loss. BJeLR (HRASV12) viability, CellTiter-Glo ATP luminescence, 48 h; reference of the scale not given here. inhibition, % (no concentration beside the values). 300,000 tested, 0.17% active. AID 1554;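 active means replicate mean above 50%; inconclusive means above 50% but judged a plate artefact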;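 further: 50 nL library stock added to about 25 µL; numbers are from one replicate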
Sa RN4220 lethal: kills Staphylococcus aureus RN4220. S. aureus RN4220 growth, OD600, 16 h. inhibition, % (concentration not given with the values). 330,000 tested, 0.33% active. AID 1259311;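 active means z-score of -3 or lower and OD600 up to 0.18 on both plates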;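 further: plate controls were untreated cells for no effect and reference antibiotic for full effect; stock transfer was 100 nL into about 80 µL; one replicate is shown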
PrP UTR inh: suppresses PrP 5' UTR mRNA reporter expression; cell-based PrP 5' UTR mRNA reporter, plate reader; inhibition, % (test concentration not listed); 340,000 tested, 0.35% active; AID 488862;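 active means every replicate at 50% or more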;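 further: 0 = median of the neutral control wells; tested in H4 reporter cells; numbers are from one replicate; inactives centre near -14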
ugtP null kill: kills S. aureus RN4220 lacking UgtP. S. aureus RN4220 ugtP deletion, OD600 growth, 16 h; some inactives read as strong as hits. growth inhibition, % (test concentration not listed). 330,000 tested, 0.54% active. AID 1259309;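 active means z-score under -3 and OD600 up to 0.15 on both plates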;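 further: plate controls were untreated wells for no effect and antibiotic for full effect; wells of about 80 µL received 100 nL stock; the first replicate is given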
Mtb hypoxia inh: Mtb hypoxia fluorescent reporter inhibition; M. tuberculosis hypoxia-regulated fluorescent reporter, fluorescence; fluorescence inhibition, % (test concentration not listed); 300,000 tested, 0.1% active; AID 1159583;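 active means 35 to 45% if threefold the growth effect, above 45% if 1.5-fold the growth effect; inactive means the rest, general growth blockers included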;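 further: wells of about 50 µL received 100 nL stock; 0% = vehicle wells and 100% = reference inhibitor wells; whole bacteria with a GFP reporter of the hypoxia response; strong numbers were not always called active; many hits fall short of the cut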
Bead autofluor: compound fluorescence in toxin protease inhibitor counterscreen; compound autofluorescence counterscreen, microsphere flow cytometry; hits give high values; fluorescence intensity (no concentration beside the values); 360,000 tested, 3.1% active;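 active means at least 3 SD above the mean of all compounds, about 16000 in these data; inconclusive means too few beads counted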;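 further: 100 nL of 1 mM stock went into each well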
Mtb hypoxia inh growth: recorded beside Mtb hypoxia inh, whose call it bears; growth inhibition, %; measured here: M. tuberculosis growth (absorbance);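 0% = vehicle and 100% = reference antibiotic; read after six days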
Numbers without * were called inactive; u = inconclusive; x = not tested or not shown.

SMILES	BJeLR viability	Sa RN4220 lethal	PrP UTR inh	ugtP null kill	Mtb hypoxia inh	Mtb hypoxia inh growth	Bead autofluor
COCCNC(=S)N1CCCC(CO)C1 (stereo not given)	0	2.4	-32	5	5	5	4382
C[C@@H](C(=O)Nc1nc(-c2ccccn2)cs1)N1C(=O)C2CCCCC2C1=O (stereo not given in full)	4	9.5	-19	-1	x	x	5725
O=S(=O)(c1c(F)cccc1F)N1CCCC2CCCCC21 (stereo not given)	x	0.6	-14	-3	14	5	3926
CN(C)c1ccc(CN(C(=O)c2cc3ccccc3oc2=O)C2CCS(=O)(=O)C2)cc1 (stereo not given)	8	-1.1	-49	-2	5	18	5643
Cc1nn(-c2ccccc2)c(N)c1C(c1ccccc1)c1c(C)nn(-c2ccccc2)c1N	-3	2.0	-9	0	6	5	2045
CC(=O)Nc1ccc(S(=O)(=O)N(C)c2ccccc2)cc1	7	4.4	-9	-5	3	8	9834
CCC(=O)NC(=S)Nc1ccc(NC(=O)c2ccccc2[N+](=O)[O-])cc1	2	2.7	-16	29	15	7	2073
CCN(CC)CCn1c(NCc2ccc(OC)cc2)nc2ccccc21	-1	-1.6	-3	8	2	3	3259
NC(=O)[C@@H]1CCCN1Cc1nc(-c2cccs2)no1	-6	1.3	-1	2	2	5	3171
CN(CCOc1ccccc1)c1ccc(S(=O)(=O)N2CCCCC2)cn1	-6	-0.8	-14	7	x	x	2101
CC(=O)N(CCc1ccccc1C)Cc1cc2ccc(C)cc2[nH]c1=O	-2	0.6	-12	-6	7	5	3051
CCCn1c(O)c(N=NC(=O)CNC(=O)c2cccnc2)c2ccccc21	0	1.7	-15	6	15	13	4763
CC#CCN1c2ccccc2[C@]23CC(C(=O)OC)N(C(=O)c4ccc(Br)cc4)C2=NC(C(=O)OC)=C(C(=O)OC)C13 (stereo not given in full)	x	3.2	x	5	1	-5	x
CC(=O)Nc1ccc(S(=O)(=O)N2CCN(C(=O)C3COc4ccccc4O3)CC2)cc1 (stereo not given)	-1	-6.8	-17	-12	-11	-11	5784
CC1CN(C(=O)COC(=O)c2ccc(NC(=O)CC#N)cc2)CC(C)O1 (stereo not given)	-4	2.9	-18	3	10	5	3229
CCc1nnc(NC(=O)c2ccc(C)o2)s1	-7	2.1	-5	3	7	11	5485
CSc1ccc(NC(=O)/C=C/C(=O)O)cc1	-3	-2.2	-11	-1	-10	8	2826
Cc1ccc(-c2cc(-c3ccccc3)cc(-c3ccccc3)[n+]2-c2ccc(C(=O)O)cc2)cc1	-5	5.1	-5	4	6	11	2847
O=C(NCCN1CCOCC1)c1cc(-c2ccc(F)cc2)on1	-2	4.9	-16	2	0	0	10876
CC(C)[C@H](NC(=O)c1ccc(Cl)c([N+](=O)[O-])c1)C(=O)NCc1ccc(Cl)cc1Cl	4	-8.7	-16	-6	5	4	3171

Complete entries, quoted from the list.
Cc1nn(-c2ccccc2)c(N)c1C(c1ccccc1)c1c(C)nn(-c2ccccc2)c1N across the screens: BJeLR viability = -3; Sa RN4220 lethal = 2.0; PrP UTR inh = -9; ugtP null kill = 0; Mtb hypoxia inh = 6; Mtb hypoxia inh growth = 5; Bead autofluor = 2045
CN(CCOc1ccccc1)c1ccc(S(=O)(=O)N2CCCCC2)cn1 across the screens: BJeLR viability = -6; Sa RN4220 lethal = -0.8; PrP UTR inh = -14; ugtP null kill = 7; Mtb hypoxia inh = x; Mtb hypoxia inh growth = x; Bead autofluor = 2101

(continued)
SMILES	BJeLR viability	Sa RN4220 lethal	PrP UTR inh	ugtP null kill	Mtb hypoxia inh	Mtb hypoxia inh growth	Bead autofluor
Nc1ncnc2c1ccn2[C@@H]1O[C@H](CO)[C@@H](O)[C@H]1O	111*	2.6	81*	12	x	x	3866
Cc1nn(-c2ccccc2)c(N2CCCC2)c1/C=N/NC(=O)c1cc(-c2cccs2)nc2ccccc12	-4	x	0	x	x	x	2450
COc1ccc(C(=O)Nc2ccccc2C(=O)O)cc1NC(=O)C(c1ccccc1)c1ccccc1	12	33	-14	30	14	9	4788
Cc1ccc(Cl)cc1N1CCN(C(=O)C2(S(=O)(=O)c3ccc(Cl)cc3)CC2)CC1	-8	18	-17	-21	7	8	10337
O=C(CNC(=O)N1CC(=O)Nc2ccccc21)Nc1cc(Cl)ccc1Cl	2	-3.4	-1	-5	-4	8	5907
CCOC(=O)C1=C(N)OC2=C(C(=O)CC(C)(C)C2)C1C1CCCCC1 (stereo not given)	-1	1.5	-26	-3	x	x	2397
CN1CCN(S(=O)(=O)c2ccc(NC(=S)NC(=O)c3ccc(Cl)cc3)cc2)CC1	x	4.3	-23	90*	x	x	2685
CC(C)C1Oc2ccccc2N(CC(=O)NC2CCCCC2)C1=O (stereo not given)	-8	0.6	-7	7	6	6	3662
CC(=O)N(Cc1cccnc1)c1cccc(-c2nc3ccccc3s2)c1	5	-0.1	-10	5	16	0	3263
COc1ccc(C(=O)NC(=S)Nc2ccc(N3CCOCC3)cc2)cc1Cl	-10	-3.1	-11	99*	18	19	4027
CCn1cc(C(=O)O)c(=O)c2cc(F)c(N3CCN(S(=O)(=O)c4ccc(NC(C)=O)cc4)CC3)cc21	-4	99*	-16	99*	x	x	2591
Cc1ccc(N2CN=c3sc(=Cc4ccccn4)c(=O)n3C2)cc1	x	2.3	x	-1	0	-1	x
O=C(O)COc1ccc(Br)cc1CP(=O)(c1ccccc1)c1ccccc1	1	-0.4	-24	-2	15	5	4310
COc1ccc(CC(CC(=O)O)C(=O)NCc2ccccc2)cc1 (stereo not given)	-9	x	-22	x	x	x	3740
CCOc1ccc(C(C)=O)cc1COC(=O)CNC(=O)c1cccs1	15	4.4	-26	-2	-4	1	6568
O=C(c1ccc2c(=O)n(Cc3ccc4c(c3)OCO4)c(=S)[nH]c2c1)N1CCC2(CC1)OCCO2	-3	-6.5	-37	11	1	0	8253
c1coc(CNc2nc(-c3cccs3)cs2)c1	1	9.8	-79	8	16	9	4368
CCCCCC(=O)NN=Cc1ccco1	x	2.9	x	-2	6	-5	x
Cn1c2ccccc2c2cc(/C=C(\NC(=O)c3ccccc3)C(=O)O)ccc21	-6	0.8	0	0	-14	-1	4772
NC(Cc1ccc(O)cc1)c1cn(C(CCC(=O)O)C(=O)N2CCNCC2)nn1 (stereo not given)	x	3.9	x	4	3	8	x

Structural class, those above containing two or more sulfur atoms.
SMILES	BJeLR viability	Sa RN4220 lethal	PrP UTR inh	ugtP null kill	Mtb hypoxia inh	Mtb hypoxia inh growth	Bead autofluor
CN1CCN(S(=O)(=O)c2ccc(NC(=S)NC(=O)c3ccc(Cl)cc3)cc2)CC1	x	4.3	-23	90*	x	x	2685
c1coc(CNc2nc(-c3cccs3)cs2)c1	1	9.8	-79	8	16	9	4368

Additional compounds:
SMILES	BJeLR viability	Sa RN4220 lethal	PrP UTR inh	ugtP null kill	Mtb hypoxia inh	Mtb hypoxia inh growth	Bead autofluor
COCCn1c(C)cc(C(=O)COC(=O)c2ccc([N+](=O)[O-])o2)c1C	3	-0.3	16	24	x	x	4417
Cn1cc(C(=O)NN=Cc2ccc([N+](=O)[O-])cc2)c2ccccc21	x	1.9	x	5	-2	6	x
O=C(CCn1c(=S)[nH]c2ccccc2c1=O)NCCc1ccccc1	x	-0.5	-9	12	0	12	1905
Cc1ccccc1CSCCNC(=O)Nc1ccccc1	6	-0.7	-13	-3	0	6	2549
CC(NC(=O)c1ccco1)C(c1cccs1)N1CCN(c2ccccc2)CC1 (stereo not given)	4	-13	-34	-3	-2	9	5416
CC(=O)c1ccc(N2CCN(C(=O)c3ccc(Cl)c(NC4=NC5CS(=O)(=O)CC5S4)c3)CC2)cc1 (stereo not given)	3	3.8	-14	3	-3	8	5203
CN(CC(=O)NCc1ccccc1)Cc1ccc(Cl)cc1	1	-3.7	-2	0	x	x	3144
Cn1c(=NC(=O)C2=NNC(=O)CC2)sc2ccccc21	-17	17	2	-64	5	4	4115
O=C(O)c1ccc(-c2nc(-c3ccccc3)c(-c3cccs3)[nH]2)cc1	4	5.9	-7	10	2	5	5077
Clc1ccc(-c2noc(CN3CCN(c4ccccc4)CC3)n2)cc1	5	-3.0	-11	12	15	9	3019
O=C(Nc1ccc2c3c(cccc13)CC2)c1ccc(Br)o1	1	-8.6	-39	-2	5	6	2534
CN(C)S(=O)(=O)c1ccc2c(c1)Cc1cc(S(=O)(=O)N(C)C)ccc1-2	7	2.3	-10	7	-7	12	3500
O=c1cc(Cc2nnc(SCc3ccccc3)n2-c2ccc(Cl)cc2)[nH]c(=O)[nH]1	-7	0.9	-1	1	-6	2	2502
O=C(COC(=O)c1ccccc1C(=O)N1CCN(c2ccccc2)CC1)Nc1ccc(F)cc1	7	-4.2	-17	-5	x	x	2617
COc1ccccc1-c1nnc2sc(C3CCCCC3)nn12	x	1.4	10	4	9	5	10713
CCOc1ccc(NC(=O)CCc2c(C)noc2C)cc1OC	x	0.7	-24	4	2	-1	3915
CCOc1ccc(NC(=O)C(NC(=O)C2CCC(C)CC2)C(C)C)cc1 (stereo not given)	-7	0.1	-6	-5	0	2	3820
O=C(NCc1ccccc1)C1=C[C@H](c2csc3ccccc23)C[C@H](OCc2ccc(CO)cc2)O1	-12	x	-18	x	x	x	4376
CCOc1ccccc1Nc1nnc(SC(C)C(=O)Nc2nc(-c3ccccc3)cs2)s1 (stereo not given)	11	1.6	-22	0	8	4	2417
CCOC(=O)N1CCC(NC(=O)c2cnn3c(C(F)(F)F)cc(-c4cccc(OC)c4)nc23)CC1	0	-3.8	x	5	2	-2	x

Just PrP UTR inh, ugtP null kill and BJeLR viability (4 entries from above):
Compound,PrP UTR inh,ugtP null kill,BJeLR viability
Clc1ccc(-c2noc(CN3CCN(c4ccccc4)CC3)n2)cc1,-11,12,5
O=C(Nc1ccc2c3c(cccc13)CC2)c1ccc(Br)o1,-39,-2,1
CN(C)S(=O)(=O)c1ccc2c(c1)Cc1cc(S(=O)(=O)N(C)C)ccc1-2,-10,7,7
O=c1cc(Cc2nnc(SCc3ccccc3)n2-c2ccc(Cl)cc2)[nH]c(=O)[nH]1,-1,1,-7

Next part:
SMILES	BJeLR viability	Sa RN4220 lethal	PrP UTR inh	ugtP null kill	Mtb hypoxia inh	Mtb hypoxia inh growth	Bead autofluor
CC(Oc1cccc(Br)c1)C(=O)NNC(=O)CCS(=O)(=O)c1ccccc1 (stereo not given)	x	2.6	-13	6	-4	2	5423
CCN(CC)S(=O)(=O)c1ccc(N2CCOCC2)c(NC(=O)c2ccc3c(c2)OCCO3)c1	-10	5.8	-6	2	5	11	u
CCOC(=O)C1CCN(C(=O)C2(NC(=O)Nc3ccccc3C)CCCCC2)CC1	-1	-2.3	-4	1	6	13	5521
O=C(O)C1CCC(N2C(=O)C3C4CCC(C4)C3C2=O)CC1 (stereo not given)	4	6.4	-33	4	11	7	4369
C/C(=N\NC(=O)c1c(Br)c(C)nn1C)c1cccc(NC(=O)c2ccccc2C)c1	13	x	-8	x	x	x	2059
CSc1n[nH]c(=S)n1N	7	2.6	-14	9	5	-8	4912
NC(=O)c1cccnc1Nc1ccccc1Cl	-3	0.9	-18	0	7	3	2702
CC(C)C[C@@H](CO)NC(=O)CC[C@H](NC(=O)OC(C)(C)C)C(=O)N(Cc1ccccc1)Cc1ccccc1	5	x	-19	x	x	x	4053
CC(C)(C)OC(=O)N1CCCC1C(=O)N1CCCC1C(=O)N1CCCC1C(=O)O (stereo not given)	3	1.0	-15	11	x	x	2817
COCc1cc(C)nc(N/N=C/c2ccc(-c3ccc(Cl)cc3[N+](=O)[O-])o2)c1C#N	6	x	-10	x	x	x	2326
Cc1ccc(C2C(C#N)=C(N)Oc3c2c(=O)n(C)c(=O)n3C)cc1 (stereo not given)	-3	-1.9	-10	4	x	x	3325
CCOc1ccccc1C(=O)NCCNC(=O)c1ccccc1OCC	-5	3.2	-14	3	9	13	5900
COCCn1c(CNc2ccc(F)cc2)nnc1SCC(=O)Nc1ccc(OC)cc1OC	-17	4.3	-7	13	7	1	8093
O=C(CCCn1c(=O)[nH]c2ccsc2c1=O)Nc1ccc(F)cc1	6	3.6	4	6	1	8	3386
O=C(NCCc1ccccc1)c1ccc(=O)[nH]c1	2	0.3	-7	-3	4	4	3663

Pulled by structure from above (2):
SMILES	BJeLR viability	Sa RN4220 lethal	PrP UTR inh	ugtP null kill	Mtb hypoxia inh	Mtb hypoxia inh growth	Bead autofluor
CSc1n[nH]c(=S)n1N	7	2.6	-14	9	5	-8	4912
CC(=O)Nc1ccc(S(=O)(=O)N(C)c2ccccc2)cc1	7	4.4	-9	-5	3	8	9834

Source: PubChem BioAssay
